Screening data from PubChem BioAssay.
Arbovirus inh – antivirals against arbovirus infection, primary screen, cell-based, full library, 10K replicate subset. inhibition, % at 10 µM. arbovirus infection cell-based antiviral screen. 0.37% of 200,000 active;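 active = inhibition from about 30%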;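 note: bluetongue infection of BSR cells; cell survival read as ATP light after 72 h; 0% = infected wells without compound and 100% = uninfected wells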
Mtb betalactam – beta-lactam sensitization of Mtb H37Rv, H37Rv. M. tuberculosis H37Rv growth with meropenem, percent inhibition; hits of this screen are not shown here. inhibition, % at 25 µM. 0.27% of 330,000 active;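 active = about 74% or more and at least 40 points above the plate without the antibiotic, then above 30% in a dose series; inconclusive = first-round hits that could not be retested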;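 note: growth measured after seven days incubation then overnight dye step; 0% = bacteria only wells and 100% = bacteria with antibiotic; twin plates without the antibiotic show which effects depend on it; some results filed as inactive read as strong as hits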
RecA intein inh – Mtb RecA intein splicing inhibitors, primary screen, biochemical, fluorescence, HTS. Protein RecA (Mycobacterium tuberculosis (strain ATCC 25618 / H37Rv)), P9WHJ3. 0.75% of 290,000 active. cell-free RecA intein splicing. inhibition, %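 (about 9 µM by stock and volumes)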; in the data active = inhibition above about 30%; inconclusive = no clear call, values can overlap the other calls;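 note: 0% = vehicle wells and 100% = reference inhibitor control wells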
Target sequence (P9WHJ3 whole entry, looked up): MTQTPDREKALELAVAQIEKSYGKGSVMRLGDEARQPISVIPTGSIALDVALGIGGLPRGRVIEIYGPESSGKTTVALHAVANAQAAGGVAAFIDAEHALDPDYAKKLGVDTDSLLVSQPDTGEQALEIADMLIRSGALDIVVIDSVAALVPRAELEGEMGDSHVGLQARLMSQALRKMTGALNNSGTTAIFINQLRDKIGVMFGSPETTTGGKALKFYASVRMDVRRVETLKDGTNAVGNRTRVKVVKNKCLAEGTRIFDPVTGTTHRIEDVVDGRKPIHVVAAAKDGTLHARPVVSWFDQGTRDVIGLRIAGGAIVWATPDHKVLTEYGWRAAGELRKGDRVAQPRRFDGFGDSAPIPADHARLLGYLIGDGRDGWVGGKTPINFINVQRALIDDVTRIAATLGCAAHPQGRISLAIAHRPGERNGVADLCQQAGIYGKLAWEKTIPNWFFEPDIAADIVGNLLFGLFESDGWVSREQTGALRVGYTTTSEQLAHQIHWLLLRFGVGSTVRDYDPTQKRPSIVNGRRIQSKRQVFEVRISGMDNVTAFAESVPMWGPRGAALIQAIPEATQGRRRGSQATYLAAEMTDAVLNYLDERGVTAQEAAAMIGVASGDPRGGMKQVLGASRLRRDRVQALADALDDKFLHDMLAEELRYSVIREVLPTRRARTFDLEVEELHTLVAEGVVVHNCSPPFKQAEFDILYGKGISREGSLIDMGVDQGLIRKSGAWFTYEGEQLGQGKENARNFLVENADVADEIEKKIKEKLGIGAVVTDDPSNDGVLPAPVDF
Mtb H37Rv – M. tuberculosis H37Rv growth inhibitors, H37Rv strain (AID 1626) | M. tuberculosis H37Rv growth inhibition; higher % means a stronger effect | inhibition, % at 10 µM, or IC50 in µM where a hit was titrated | 0.95% of 220,000 active;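 active = confirmed in a dose series; inconclusive = inhibition above 80% but not taken into the dose series; inactive = below 80% or under 30% at every dose of the series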;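 note: bacteria incubated seven days before Alamar blue readout; 0% = bacteria only wells and 100% = bacteria with antibiotic wells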
YopH inh – YopH tyrosine phosphatase inhibitors, primary screen, biochemical, fluorescence Ex485/Em525. inhibition, %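 (about 10 µM by stock and volumes)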. 0.16% of 140,000 active;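 active = inhibition of 50% or more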;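 note: controls were vehicle for no effect and minimum signal wells for full effect; inactives centre near -20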
Arbovirus inh repeat – recorded beside Arbovirus inh, whose call it bears; inhibition, %; measured here: 10K subset replicate screen; many hits read low in the repeat;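 first of two repeat runs on a subset; 0% = infected and 100% = uninfected wells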
Active calls of the source: *; ? = inconclusive; · = not tested or not shown.

SMILES | Arbovirus inh | Mtb betalactam | RecA intein inh | Mtb H37Rv | YopH inh | others
COc1cccc(-c2nnc(NC(C)=O)o2)c1 | 4.3 | 11.9 | 1.6 | 7.5% | · | Arbovirus inh repeat=-0.5
Cn1c(=O)c2c(nc(N/N=C/c3cccs3)n2C)n(C)c1=O | · | -13.8 | -2.5 | -1.1% | ·
CCOc1ccccc1O[C@H](c1ccccc1)[C@H]1CNCCO1 | · | 3.3 | 3.0 | · | ·
CCOC(=O)/C(=C\C=C1/Sc2ccccc2N1CC)C(C)=O | -1.3 | -3.9 | -10.6 | 13.1% | -32.6
COCCN(C(=O)c1cc2c(s1)CCCCC2)c1c(N)n(Cc2ccccc2)c(=O)[nH]c1=O | · | 0.3 | -0.3 | · | ·
COC(=O)C1C(c2ccc(Br)cc2)Nc2nnc(C(F)(F)F)n2C1(C)O (configuration not stated) | 3.9 | -0.2 | 1.2 | -2.7% | ·
CCNc1nc(NC(C)C)nc(OCC)n1 | 4.8 | 1.7 | -3.9 | 1.4% | 8.1
COc1ccc(OC)c(N2Cc3ccccc3C2=N)c1 | 1.3 | -2.4 | -0.4 | 0.3% | ·
Cc1cc(Nc2ccccc2)c2c([N+](=O)[O-])c(C)cc(C)c2n1 | -4.6 | 34.0 | 11.4 | 14.2% | -17.7
CCOC(=O)c1oc2nc3c(cc2c1N)CCCC3 | · | -9.1 | 0.8 | -1.4% | ·
Cc1c(C(c2cc(O)ccc2Cl)c2c(C)n(C)n(-c3ccccc3)c2=O)c(=O)n(-c2ccccc2)n1C | · | -8.5 | 0.6 | · | ·
CCOC(=O)c1cnc2c(C(=O)OCC)cnn2c1N | · | 0.4 | -2.6 | 0.7% | ·

Part of the list above in order of count of non-hydrogen atoms, lowest first.
SMILES | Arbovirus inh | Mtb betalactam | RecA intein inh | Mtb H37Rv | YopH inh | others
COc1cccc(-c2nnc(NC(C)=O)o2)c1 | 4.3 | 11.9 | 1.6 | 7.5% | · | Arbovirus inh repeat=-0.5
CCOC(=O)/C(=C\C=C1/Sc2ccccc2N1CC)C(C)=O | -1.3 | -3.9 | -10.6 | 13.1% | -32.6
CCOc1ccccc1O[C@H](c1ccccc1)[C@H]1CNCCO1 | · | 3.3 | 3.0 | · | ·

(next part)
SMILES | Arbovirus inh | Mtb betalactam | RecA intein inh | Mtb H37Rv | YopH inh | others
CCOc1ccc(N=CC2=C(O)CC(c3ccco3)CC2=O)cc1 (configuration not stated) | -1.0 | 98.8 | -3.5 | 5.31µM* | -26.7
CC1(C)Cc2ccccc2C(c2cc3ccccc3oc2=O)=N1 | -17.6 | -4.1 | -1.5 | 1.2% | -10.3
Cc1ccc(N2C(=O)c3cccc([N+](=O)[O-])c3C2=O)cc1C | 1.7 | -8.8 | -6.2 | -1.4% | ·
Cc1ccc(/C=N/NC(=O)CSc2nc3ccccc3n2C)s1 | -17.5 | 10.7 | 0.2 | -5.3% | -1.9
O=C1c2ccccc2CN1CCNC(=S)NC1CCCCC1 | 18.7 | -2.0 | 2.6 | 2.5% | ·
COCc1ccc(C(=O)N2CCCC(Nc3ccc(C(C)C)cc3)C2)o1 (configuration not stated) | · | -23.1 | 0.2 | · | ·
CN1C(=O)c2ccccc2C(C(=O)O)C1c1cn(C)c2ccccc12 (configuration not stated) | 4.9 | -0.7 | 0.8 | -1.5% | -22.6
OCCCn1c(-c2ccccc2)n[nH]c1=S | 7.1 | -3.3 | -1.0 | -2.4% | -9.5
O=C(NNC(=O)C(c1ccccc1)c1ccccc1)c1cccs1 | 1.2 | -5.2 | -4.2 | -3.2% | -35.3
CC1CCCC(C)N1CCCNC(=O)c1cc2c(s1)-c1ccccc1OC2 (configuration not stated) | · | 6.2 | -22.1 | · | ·
COC(=O)[C@H](Cc1ccccc1)NC(=O)[C@@H]1C[C@H]1[C@@H](NC(=O)OCc1ccccc1)c1ccccc1 | 10.2 | -3.3 | -4.1 | -3.8% | -33.4
CCN(CC)CCCN1C=C2C(=O)C(C)(OC(=O)CCC(=O)OC)C(=O)C=C2C=C1C1CC1 (configuration not stated) | · | -0.7 | -3.9 | -6.1% | ·
COCCOC(=O)C1=C(C)N(Cc2ccccc2)C(=O)NC1c1cccc(OC)c1OC (configuration not stated) | -3.0 | 7.5 | -0.4 | -10.6% | -0.6
O=C(CNc1ccccc1)NNC1=NCCC1 | -19.2 | -2.2 | -2.3 | 13.1% | -17.1
COc1ccccc1/C=C/C(=O)NNC(=O)c1cccs1 | -7.1 | -1.1 | -1.1 | 9.8% | ·
O=C(NCCc1nc2ccccc2[nH]1)C1CCC(=O)N(CCc2cccc(F)c2)C1 (configuration not stated) | · | -1.1 | -0.6 | · | ·
CCOC(=O)COn1c(-c2cccc(Cl)c2)nc2ccc([N+](=O)[O-])cc21 | 0.5 | 98.9 | -0.6 | ? | -6.5
Cc1ccc(NC2CCCN(C(=O)c3ccccn3)C2)cc1C (configuration not stated) | · | -6.7 | 3.6 | · | ·
O=C(/C=C/c1ccc(OCCCF)cc1)Nc1ccnc(-c2ccncc2)n1 | -4.0 | 92.1 | 1.0 | 84.1µM* | ·
Cc1cccc(NC(=O)CCc2nnc3ccc(NCc4ccco4)nn23)n1 | · | -3.2 | 3.2 | · | ·
CC(NC(=O)C12CC3CC(C1)CC(n1cncn1)(C3)C2)C12CC3CC(CC(C3)C1)C2 (configuration not stated) | 6.6 | 0.5 | 3.7 | 4.8% | -33.6
CN1C(=O)C(=Cc2ccccc2Oc2ccc(Cl)cc2)C(=O)N(C)C1=O | 2.6 | -11.1 | 6.6 | 8.2% | -5.7
COC(=O)c1cc(OC)c(OC)cc1NC(=O)c1c(-c2ccccc2)noc1C | -11.2 | 10.9 | 6.4 | 5.1% | -12.6
CCCCSc1nc(SCC(=O)NCc2ccco2)c2c3c(sc2n1)COC(C)(CC)C3 (configuration not stated) | -10.1 | -1.9 | 3.9 | -11.7% | -22.6
CN(C)C(=O)C1CC(=O)OC12CCCCC2 (configuration not stated) | · | 6.6 | -0.9 | -3.1% | ·
CCN(CC)S(=O)(=O)c1ccc(N2CCCC2)c(NC(=O)c2c(-c3ccccc3)noc2C)c1 | · | 6.8 | 1.0 | · | ·
COc1ccccc1C(=O)NC1CCCCCCC1 | -11.7 | 20.6 | 5.1 | 0.0% | 31.1
Cc1ccc(Cn2nc(C)c(NC(=O)CCCn3nc(C)c([N+](=O)[O-])c3C)c2C)cc1 | 6.2 | -1.3 | 0.4 | 5.9% | 5.1
Cc1nc(NC(=O)COC(=O)C2=NNC(=O)CC2)c(Cl)cc1Cl | 3.0 | -1.9 | -2.0 | -11.2% | ·
CCOc1ccc(NS(=O)(=O)c2c(C(=O)N3CCCCCC3)c(C)n(C)c2C)cc1 | · | -4.5 | 8.2 | · | ·
CC(C)(C)NC(=O)C(=O)N/N=C/c1ccc(Br)cc1 | -5.9 | 0.9 | -1.4 | · | -36.2
CC(C)(C)OC(=O)N1CC=C2C(C#N)=C(N)C(C#N)(C#N)[C@H](c3cccnc3)[C@H]2C1 | 2.3 | 7.8 | · | -2.7% | -18.2
CCC(C)(C)NC(=O)C(c1ccc(O)cc1)N(CCOC)C(=O)CCC(=O)Nc1nccs1 (configuration not stated) | · | -2.4 | 2.3 | -1.3% | ·
COc1ccccc1CNC(=O)CNC(=O)c1ccc(Br)o1 | · | -4.7 | -4.2 | · | ·
COCCNC(=O)C(c1ccco1)N(C(=O)Cn1nnc2ccccc21)c1cc(C)ccc1C (configuration not stated) | 6.8 | -2.5 | -2.7 | -0.5% | -45.9
CC(Sc1nc(-c2ccccc2)cc(C(F)(F)F)n1)C(=O)N1CCOCC1 (configuration not stated) | -10.3 | -14.7 | -0.6 | -7.7% | -1.6
Cc1ccc(N(C)S(=O)(=O)c2ccc3c(c2)NC(=O)C(C)S3)cc1 (configuration not stated) | · | -3.8 | 4.6 | · | ·
C=CCN1CCN(Cc2cnc(Cl)s2)CC1 | 6.4 | 4.7 | -0.6 | -8.5% | -27.0
CCOc1ccc(C2C(C#N)=C(N)SC(N)=C2C#N)c(OCC)c1 | -7.4 | -9.8 | -1.1 | 2.7% | -15.1
Cc1onc(NC(=O)CSCC(=O)O)c1Br | · | -5.8 | -0.1 | -10.5% | ·
CNC(=S)Nc1cc(OC)c(NC(=O)c2ccco2)cc1OC | -6.8 | -2.2 | -4.0 | 1.5% | ·
Cc1ccc(CNC(=O)C2CCC(CNS(=O)(=O)c3cccc4cccnc34)CC2)cc1 (configuration not stated) | · | -0.6 | 2.5 | · | ·
CCN1CCN(c2nc3ccccc3nc2NS(=O)(=O)c2ccc(NC(C)=O)cc2)CC1 | · | -9.6 | -0.1 | · | ·
O=C(CCNC(=O)C1CCN(S(=O)(=O)c2ccccc2)CC1)NCc1cccc(Cl)c1 | · | 0.2 | -0.1 | · | ·
CCOc1ccccc1OCC(=O)Nc1nc2ccccc2[nH]1 | 16.5 | 16.5 | -0.4 | 9.7% | ·
Cc1ccc(S(=O)(=O)N2CCN(C(=O)CSc3nc4ccccc4c(=O)[nH]3)CC2)c(C)c1 | -2.4 | -2.3 | -0.6 | -6.7% | -12.4
Cn1c2ccccc2c2nnc(NN)nc21 | · | -7.1 | -0.9 | -12.3% | ·
COCCn1c(=S)[nH]c2cc(C(=O)NCCc3ccccc3)ccc2c1=O | · | 0.4 | 0.2 | · | ·
O=C(COC(=O)CNC(=O)C1CCCCC1)Nc1ccc(Cl)cc1F | 23.1 | -8.2 | -15.1 | -0.5% | ·
CCn1c(=O)c2cc(C(=O)NCCC(C)C)sc2c2ccccc21 | · | 6.3 | 1.7 | · | ·
CCC(=O)Nc1cc(-c2nnc(OC)c3ccccc23)ccc1N1CCOCC1 | 9.0 | -4.1 | -1.9 | -3.6% | -41.4
CC(C)(C)NC(=O)CSc1nnc(Cc2ccc3c(c2)OCO3)n1C1CCCCC1 | -5.2 | -5.2 | 0.7 | 1.7% | -36.0
COc1cccc(NC(=O)Nc2nnc(Cc3ccc(OC)c(OC)c3)s2)c1 | · | 2.4 | 2.1 | · | ·
CCOC(=O)C1(Cc2ccc(Cl)cc2)CCN(C(=O)C2=NNC(=O)CC2)CC1 | 2.0 | -3.7 | -0.2 | -4.4% | ·
O=c1[nH]cc(I)cc1I | · | · | -1.6 | 3.5% | ·
N/C(Cc1ccc([N+](=O)[O-])cc1)=N\OC(=O)c1ccco1 | -6.9 | -5.5 | · | -3.0% | ·
O=C(Oc1ccc(C(=S)N2CCOCC2)cc1)c1cc([N+](=O)[O-])cc([N+](=O)[O-])c1 | · | 11.7 | -0.4 | · | ·
O=C(CSc1cccc[n+]1[O-])NCCCc1ccccc1 | 2.9 | -7.6 | 3.3 | -5.4% | ·
COc1cccc(CNC(=O)CCC2CCCN(C(=O)c3cc(C)[nH]n3)C2)c1 (configuration not stated) | 6.0 | 4.1 | · | -3.0% | ·
Cc1cc(C)nc(Nc2n[nH]c(-c3ccccc3C)n2)n1 | -4.7 | 6.0 | -0.4 | 1.8% | ·

New compounds follow
SMILES | Arbovirus inh | Mtb betalactam | RecA intein inh | Mtb H37Rv | YopH inh | others
O=C1C2C3CCC(C3)C2C(=O)N1c1ccc(OS(=O)(=O)c2ccccc2)cc1 (configuration not stated) | -2.9 | -8.4 | -0.8 | -1.9% | ·
COCCNC(=O)COCc1cc(-c2ccc3c(c2)OCO3)on1 | · | -0.6 | -0.6 | · | ·
O=C(N=C1N=C2C=CC(Br)=CN2Cc2ccccc21)c1ccc([N+](=O)[O-])cc1[N+](=O)[O-] | · | 27.4 | -2.9 | · | ·
CC1CC(C)CN(C(=O)c2nn(C)c3c2CS(=O)(=O)c2ccccc2-3)C1 (configuration not stated) | · | 6.0 | 1.2 | · | ·
C/C(=N\NC(=O)CNc1ccccc1Cl)C(C)(C)C | -5.3 | 6.3 | -0.1 | -7.3% | 9.6
CCN(Cc1ccccc1)C(=O)Cn1c(=O)n(CC(=O)N2CCCCC2)c(=O)c2sccc21 | · | -5.1 | 0.0 | · | ·
N#Cc1c(N)c(C(=O)c2ccccc2)n2c1CCCC2 | -1.7 | -9.2 | -2.1 | -1.9% | -7.1
CC(=O)C1C(c2ccc(C)cc2)c2c(n[nH]c2C)CC1(C)O (configuration not stated) | 8.6 | 1.8 | -0.7 | -8.7% | -15.9
COc1cccc(CNC(=O)CCNC(=O)c2ccccc2OC)c1 | · | -14.7 | 3.4 | · | ·
COc1cc2ccccc2cc1C(=O)N(CCN(C)C)c1nc2ccc(Br)cc2s1 | · | 75.1 | 18.5 | · | ·
O=C(OCn1nnc2ccccc2c1=O)c1cc2ccccc2o1 | 7.0 | 99.5 | 1.0 | 56.0% | · | Arbovirus inh repeat=4.4
O=C(Nc1ccc(OC(F)(F)F)cc1)C1CC(c2ccc(F)cc2)=NO1 (configuration not stated) | -3.8 | 6.2 | · | -5.2% | ·

Some of the compounds tested (hit frequency here may not be typical).
